# High-throughput results: PubChem, several laboratories
# Mtb hypoxia inh: inhibitors of hypoxia-regulated fluorescent reporter in Mycobacterium tuberculosis. M. tuberculosis hypoxia-regulated fluorescent reporter, fluorescence. fluorescence inhibition, % (test concentration not listed). actives 0.1% (n = 300,000);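 active means 35 to 45% if threefold the growth effect, above 45% if 1.5-fold the growth effect; inactive means the rest, general growth blockers included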;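 further: wells of about 50 µL received 100 nL stock; 0% = vehicle wells and 100% = reference inhibitor wells; whole bacteria with a GFP reporter of the hypoxia response; strong numbers were not always called active; many hits fall short of the cut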
# PrP UTR inh: suppresses PrP 5' UTR mRNA reporter expression; cell-based PrP 5' UTR mRNA reporter, plate reader; inhibition, % (concentration not given with the values); actives 0.35% (n = 340,000); AID 488862;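 active means every replicate at 50% or more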;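 further: 0 = median of the neutral control wells; tested in H4 reporter cells; numbers are from one replicate; inactives centre near -14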
# BJeLR viability: kills HRASV12-expressing BJeLR cells | BJeLR (HRASV12) viability, CellTiter-Glo ATP luminescence, 48 h; reference of the scale not given here | actives 0.17% (n = 300,000) | AID 1554 | inhibition, % (no concentration beside the values);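 active means replicate mean above 50%; inconclusive means above 50% but judged a plate artefact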;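 further: 50 nL library stock added to about 25 µL; numbers are from one replicate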
# Sa ugtP lethal: compounds lethal to S. aureus RN4220 ugtP deletion mutant | OD600 growth, 16 h; some inactives read as strong as hits | growth inhibition, % (no concentration beside the values) | actives 0.54% (n = 330,000);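 active means z-score under -3 and OD600 up to 0.15 on both plates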;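 further: plate controls were untreated wells for no effect and antibiotic for full effect; wells of about 80 µL received 100 nL stock; the first replicate is given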
# Autofluor counter: compound fluorescence in toxin protease inhibitor counterscreen; compound autofluorescence counterscreen, microsphere flow cytometry; active compounds read high; fluorescence intensity (no concentration beside the values); actives 3.1% (n = 360,000);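 active means at least 3 SD above the mean of all compounds, about 16000 in these data; inconclusive means too few beads counted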;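 further: 100 nL of 1 mM stock went into each well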
# Sa RN4220 lethal: S. aureus RN4220 growth inhibition; AID 1259311; actives 0.33% (n = 330,000); inhibition, % (no concentration beside the values); OD600, 16 h;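 active means z-score of -3 or lower and OD600 up to 0.18 on both plates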;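 further: plate controls were untreated cells for no effect and reference antibiotic for full effect; stock transfer was 100 nL into about 80 µL; one replicate is shown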
# Mtb hypoxia inh growth: second read-out of Mtb hypoxia inh, no call of its own (marks repeat the call); growth inhibition, %; measured here: M. tuberculosis growth (absorbance);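 0% = vehicle and 100% = reference antibiotic; read after six days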
# * = called active by the depositor; ? = inconclusive; . = no result given; & = joins results of further samples.
SMILES,Mtb hypoxia inh,Mtb hypoxia inh growth,PrP UTR inh,BJeLR viability,Sa ugtP lethal,Autofluor counter,Sa RN4220 lethal
Cc1cc(C)c(C(=O)NNC(=O)c2cccnc2)c(C)c1,12.1,1.6,-19.9,11.4,-2.6,6074,3.8
O=C(NCCc1ccccc1)NC1CCCCC1,20.7,14.4,.,3.7,8.7,7892,5.2
CC(CCC1CC(C)OC1=O)=NNC(N)=O (stereo not given),1.7,-12.6,.,.,3.1,.,2.7
Nc1nonc1-c1nc2ccccc2n1CC(=O)N/N=C/c1ccc(-c2ccccc2C(=O)O)o1,.,.,-20.2,-25.3,.,4346,.
CCN(CC)C(=O)COc1cc(C)cc2oc(=O)cc(-c3ccccc3)c12,7.6,13.6,-18.1,2.5,-3.5,2590,-12.0
O=C(CN(Cc1ccccc1)S(=O)(=O)c1ccc(S(=O)(=O)N2CCOCC2)cc1)Nc1ccccc1,-4.6,-6.7,-16.4,1.3,4.7,9949,3.7
Cc1ccc(-n2c(SCC(=O)NCC3CCCO3)nnc2-c2ccoc2C)cc1 (stereo not given),.,.,-24.1,8.0,2.9,4707,3.9
O=C(c1ccccc1Cl)N1CCNCC1,.,.,-14.9,-1.9,10.0,2658,6.1
CCCCN(C(=O)c1nn(C)c(=O)c2ccccc12)c1c(N)n(CC(C)C)c(=O)[nH]c1=O,-11.0,0.1,-1.6,.,-5.1,9199,-3.2
OC1NC(=S)N(c2ccccc2)C1O (stereo not given),-4.6,0.2,-0.5,1.7,5.9,.,3.0
CCCn1cc(S(=O)(=O)c2ccc(OC)cc2)c(=O)c2cc(OCC)ccc21,-7.0,-4.6,-2.0,-24.1,6.7,5512,4.0
Cc1ccc(F)cc1NC(=O)CSc1ncccn1,0.2,3.9,-31.9,4.6,3.6,3604,-0.6
C#C[C@]1(O)CC[C@H]2[C@@H]3CCC4=CC(=O)CC[C@@H]4[C@H]3CC[C@@]21C,.,.,-9.1,2.8,.,5748,.
CNC(=O)c1c[nH]n2c(=O)c(Cc3ccccc3F)c(C)nc12,10.4,-0.9,-38.7,-1.1,-2.1,5569,2.1
Cc1ccc(S(=O)(=O)N(C)CC(=O)Nc2cc(C)ccn2)cc1,5.5,5.9,-32.3,-8.9,3.1,4049,-0.1
CN1CCN(c2ccc(NC(=S)NC(=O)c3cccc4ccccc34)cc2)CC1,4.1,2.9,-23.7,1.8,95.4*,4944,4.0
COCC(=O)Nc1ccc(S(=O)(=O)NCCc2ccccc2)cc1,0.5,-2.3,-11.2,2.3,7.2,16357*,3.1
CCOC(=O)c1c(C)[nH]c(C)c1C(=O)COC(=O)c1nc2nccc(C)n2n1,2.2,5.7,-13.2,-7.8,4.3,3972,12.6
Cc1cc(C)n2nc(SCCCC(=O)c3ccc(F)cc3)nc2n1,12.2,4.8,3.4,0.6,7.0,3368,2.2
O=C(CCn1cccc1)Nc1nccs1,8.5,3.4,-13.8,-4.7,-2.7,3931,6.4

# The final 6 entries of the section before are carried over, then new ones follow:
SMILES,Mtb hypoxia inh,Mtb hypoxia inh growth,PrP UTR inh,BJeLR viability,Sa ugtP lethal,Autofluor counter,Sa RN4220 lethal
Cc1ccc(S(=O)(=O)N(C)CC(=O)Nc2cc(C)ccn2)cc1,5.5,5.9,-32.3,-8.9,3.1,4049,-0.1
CN1CCN(c2ccc(NC(=S)NC(=O)c3cccc4ccccc34)cc2)CC1,4.1,2.9,-23.7,1.8,95.4*,4944,4.0
COCC(=O)Nc1ccc(S(=O)(=O)NCCc2ccccc2)cc1,0.5,-2.3,-11.2,2.3,7.2,16357*,3.1
CCOC(=O)c1c(C)[nH]c(C)c1C(=O)COC(=O)c1nc2nccc(C)n2n1,2.2,5.7,-13.2,-7.8,4.3,3972,12.6
Cc1cc(C)n2nc(SCCCC(=O)c3ccc(F)cc3)nc2n1,12.2,4.8,3.4,0.6,7.0,3368,2.2
O=C(CCn1cccc1)Nc1nccs1,8.5,3.4,-13.8,-4.7,-2.7,3931,6.4
COC(=O)CSc1cccc2c1C(=O)CC2c1ccccc1 (stereo not given),5.7,0.2,.,6.3,6.5,3720,5.0
COc1ccc(CNC(=O)[C@H](C)NC(=O)C2CCN(S(=O)(=O)c3ccccc3)CC2)cc1,-3.7,-2.2,-15.1,7.8,0.1,5522,-2.1
O=C(N/N=C/c1c(Nc2cccc(C(F)(F)F)c2)nc2ccccn2c1=O)c1ccccc1[N+](=O)[O-],.,.,-4.4,-0.1,.,9585,.
COc1ccc(C(=O)CSc2nnc(C3CCCCC3)n2N)c(OC)c1,.,.,3.1,0.7,11.8,4606,7.8
Cc1ccc(-c2nc(SCC(=O)NCC3CCCO3)c(-c3ccc(Cl)cc3)[nH]2)cc1 (stereo not given),3.1,-0.9,-20.2,3.3,-1.9,5429,-0.2
O=C(CN1CCN(S(=O)(=O)c2ccc(F)cc2)CC1)Nc1ccc(Cl)c(C(F)(F)F)c1,.,.,-11.9,-2.5,-22.1,3023,-2.2
COc1ccccc1S(=O)(=O)Nc1ccc2cn[nH]c2c1,0.8,-1.2,-11.6,1.8,6.2,7385,-2.2
Cn1c(=O)c2c(nc(SCC(=O)NCc3ccc4c(c3)OCO4)n2Cc2ccccc2)n(C)c1=O,-2.6,0.5,-11.0,-7.0,5.5,3155,8.7
COC(=O)[C@H](CCSC)NC(=O)N1CCN(Cc2ccccc2)CC1,3.9,-2.0,-4.2,6.7,5.3,7719,3.5
CNC(=O)C(=O)Nc1ccc2c(c1)N(S(=O)(=O)c1cccs1)CCC2,-1.4,3.9,1.2,-0.1,1.1,?,5.7
COc1ccc(CCNC(=O)c2ccc3c(c2)N(Cc2ccc(F)cc2)CCS3)c(OC)c1,7.0,14.1,6.5,-8.4,-5.6,5790,-6.4
CCOC(=O)CCC(=O)O[C@H]1[C@H](O[C@@H]2[C@@H](C)[C@H](O[C@H]3C[C@@](C)(OC)[C@@H](O)[C@H](C)O3)[C@@H](C)C(=O)O[C@H](CC)[C@@](C)(O)[C@H](O)[C@@H](C)C(=O)[C@H](C)C[C@@]2(C)O)O[C@H](C)C[C@@H]1N(C)C,.,.,-9.8,1.3,.,6032,.
CCc1ccc(N(C(=O)Cc2cccs2)C(C(=O)NC2CCCCC2)c2cn(C)nc2C)cc1 (stereo not given),4.7,7.9,-9.2,10.6,-5.4,23253*,1.8
CCC(=O)N1c2ccc(S(=O)(=O)N3CCN(c4cc(C)ccc4C)CC3)cc2CC1C (stereo not given),8.2,13.2,-14.1,-2.6,9.4,5594,1.8
CSCCC(NC(=O)c1ccccc1Cl)C(=O)NCCOc1ccccc1 (stereo not given),-9.3,-3.4,-15.9,8.0,1.4,?,2.7
S=C(NCc1ccc(Cl)cc1Cl)Nc1ccccc1,-1.4,2.4,7.2,-3.8,-15.4,2665,-5.7
CN(c1ccccc1)S(=O)(=O)c1cccc(NC(=O)c2cc(=O)c3ccccc3o2)c1,2.2,2.2,-23.9,-2.8,4.1,4781,2.9
CCOC(=O)Nc1cccnc1Sc1ccc(Cl)cc1,6.0,-11.2,-23.6,-7.1,-1.4,5847,-1.6
COC(=O)c1sccc1NC(=O)c1c(Cl)cccc1Cl,8.6,-2.0,-18.9,4.4,17.3,4609,3.4
Fc1ccc2c(c1)C(c1ccncc1)=NNC(c1cccnc1)=N2,18.4,0.5,-24.4,-1.2,8.7,?,1.8
COc1ccc(S(=O)(=O)Nc2ccc3c(c2)n(C)c(=O)n3C)cc1F,.,.,-6.0,3.4,.,2786,.
COc1ccc(-n2cnnc2SCCC#N)cc1,8.7,12.4,-15.0,-6.9,3.6,4052,6.3
CC(C)[C@H](NC(=O)[C@@H]1CSC2c3ccccc3C(=O)N21)C(=O)NCC1CCCO1 (stereo not given in full),6.3,5.2,-16.9,-4.4,5.7,5494,3.7
CC1CCN(CCc2nc3cc(NC(=O)C(C)C)ccc3n2C)CC1,4.8,4.7,-13.6,4.4,1.3,3660,1.2
CCOC(=O)c1cccc(NC(=O)CCc2nnc3ccc(N4CCOCC4)nn23)c1,2.7,7.6,-23.0,5.4,7.2,5718,2.5
Cc1ccccc1NC(=O)Cc1c(O)c2ccccc2[nH]c1=O,7.3,13.6,-2.5,-10.3,3.1,6232,1.5
COC(=O)C1C[C@@]2(O)C(O)C(O)C(O)CC2N1CC=Cc1ccccc1 (stereo not given in full),-2.3&19.8,-11.7&13.7,.,.,-3.3&3.5,.,-1.9&6.5
O=C(NCC1COc2ccccc2O1)c1cccc(S(=O)(=O)N2CCN(c3ccccc3)CC2)c1 (stereo not given),0.9,-7.4,-25.3,.,14.5,.,-5.9
Cc1csc(=O)n1CC(=O)OCc1nnc(-c2ccccc2)o1,5.2,-1.0,-18.1,-2.0,1.8,?,2.1
C=CCC1(CC=C)CCCN1C(=O)C1CCC(=O)N(CCc2ccccc2)C1 (stereo not given),.,.,-40.0,1.5,.,?,.
CCOc1ccc(S(=O)(=O)Nc2ccc(S(=O)(=O)N3CCCCC3)cc2)cc1,5.7,3.7,-22.1,-0.2,-3.9,8279,-2.1
CCc1nnc(NC(=O)CSc2nnc(-c3ccco3)n2CCOC)s1,8.5,1.0,-26.1,-5.0,3.3,5008,1.9
COc1ccc(Oc2cccc(Cl)c2CNC(=O)CSCC(=O)O)cc1,12.7,-6.9,-14.0,1.4,9.4,3802,1.4
Cc1cc2cc(CN(Cc3ccco3)C(=O)C3CCCCC3)c(=O)[nH]c2cc1C,8.4,10.1,-12.8,-2.1,3.2,3053,4.6
COCCn1c(SCC(=O)/C=C2\N(C)c3ccccc3C2(C)C)nnc1-c1ccncc1,-6.3,9.7,4.8,18.7,9.3,2022,0.4
C/C(Cn1ncc(N2CCOCC2)c(Cl)c1=O)=N\O,.,.,-4.6,14.5,.,3514,.
COc1ccccc1CN1CCC(n2nccc2NC(=O)c2ccccc2Cl)CC1,7.0,7.6,-15.6,9.6,3.4,5552,1.6
CC(C)(C)c1ccc(C(=O)NCC(=O)N2CCCC2)cc1,14.9,11.6,-34.1,-0.1,6.3,3933,3.4
Cc1ccc(NCc2ccccc2OCc2ccccc2F)cc1,8.6,14.1,-23.4,-2.6,32.7,4342,-6.5
C[C@@H](C(O)c1ccccc1)N(C)C(=O)CCc1ccccc1 (stereo not given in full),.,.,-10.9,12.9,.,4052,.
CCc1ccc(C(C)NC(=O)/C(C#N)=C\c2cn[nH]c2-c2ccccc2)cc1 (stereo not given),2.6,-1.3,-6.9,1.7,-1.4,10138,3.3
O=C(Cn1cnc2ccccc2c1=O)Nc1nc2ccccc2s1,-4.7,9.0,-20.7,1.8,-7.7,1987,1.3
COc1ccc(NC(=O)COC(=O)c2cc([N+](=O)[O-])ccc2N2CCOCC2)cc1,-20.1,-2.9,-0.3,15.7,-4.1,?,-2.3
COc1ccc(-n2nc(C(=O)NCC(=O)N(C)Cc3ccccc3)c3ccccc3c2=O)c(OC)c1,-5.9,-11.8,-8.8,-7.6,-6.7,4168,2.1
COc1ccc(C(=O)N2CCc3[nH]nc(-c4ccccc4)c3C2)cc1,-6.7,12.7,12.5,-7.8,1.1,5627,5.4
COC(=O)CC1Oc2ccccc2N(Cc2ccc(C)cc2)C1=O (stereo not given),.,.,-1.4,1.6,8.2,2843,-3.8
Cc1nnsc1C(=O)NC1CCCc2c1cnn2-c1cc(F)cc(F)c1 (stereo not given),15.9,-33.0,-19.4,-13.1,9.2,4448,6.6
Cc1ccc(S(=O)(=O)N(c2cccc(C(F)(F)F)c2)C2C=CS(=O)(=O)C2)cc1 (stereo not given),5.3,5.7,-11.2,-1.2,5.9,12377,5.8
CC1CCCN(c2nc3nonc3nc2N2CCCC(C)C2)C1 (stereo not given),0.3,6.6,-9.5,0.7,-9.1,2918,-7.9
O=c1[nH]c(=O)n(C(c2ccccc2)c2ccccc2)cc1Br,-9.3,9.4,-17.3,2.2,3.1,4328,-2.2
CC(=NNC(=O)c1nc2ccccn2c1C)c1ccc2c(c1)OCO2,2.3,-0.7,.,.,8.7,.,2.5
O=c1[nH]c2ccccc2c2nc(-c3cccc(S(=O)(=O)N4CCCC4)c3)nn12,-5.9,3.9,-14.4,0.7,19.3,4051,6.1
